VDR inh = Inhibitors of the vitamin D receptor (VDR): qHTS. Vitamin D3 receptor (Homo sapiens), P11473. VDR-SRC2-3 peptide fluorescence polarization, 2 h. Potency, µM, for the others: max response, negative = inhibition, actives largely listed as inhibitors. 400,000 tested, 0.93% active. AID 504847, 2011; active = well fitted inhibition curve with a large enough effect; inconclusive = small, poorly fitted or top-dose-only effect, or another doubt; inactive = no such curve, though single readings can be large or run the other way; also: series mostly up to about 120 µM
Target sequence (P11473 whole entry, looked up): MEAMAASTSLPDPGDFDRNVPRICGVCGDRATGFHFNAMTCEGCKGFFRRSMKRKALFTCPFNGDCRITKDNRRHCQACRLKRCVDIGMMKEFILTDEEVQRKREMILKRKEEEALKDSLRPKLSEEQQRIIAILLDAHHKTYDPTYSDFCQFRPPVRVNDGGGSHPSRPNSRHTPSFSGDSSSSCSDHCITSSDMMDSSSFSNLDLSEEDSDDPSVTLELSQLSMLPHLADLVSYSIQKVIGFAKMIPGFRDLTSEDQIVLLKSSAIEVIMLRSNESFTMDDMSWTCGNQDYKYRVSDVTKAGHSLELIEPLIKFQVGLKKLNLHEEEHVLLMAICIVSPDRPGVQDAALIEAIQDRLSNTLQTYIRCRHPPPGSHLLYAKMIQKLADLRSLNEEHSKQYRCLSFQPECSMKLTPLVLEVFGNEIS
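Reagent solutions, kept cold and dark, are dispensed first; compounds are then pinned in at 23 nl, plates briefly spun, and incubated 2 h at ambient temperature. Inhibition of VDR–SRC2-3 peptide binding is read by fluorescence polarization.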
* marks the source's active call; other numbers are inactive results; ? = inconclusive; & = joins results of further samples. % is scaled to controls: 0 for no effect and ±100 for the full control effect; potency is read from the fitted curve at half-maximal effect. Some of the compounds tested, so the mix of outcomes need not match the whole.

| molecule | VDR inh |
| --- | --- |
| CN(CC(=O)Nc1ccccc1Cl)C(=O)COc1cccc2c1OC(C)(C)C2 | -3% |
| O=C(O)C(c1ccccc1)N1C(=O)c2ccccc2C1=O (stereo unspecified) | 4% |
| O=C(COC(=O)c1ccccc1SCC(=O)N1CCCC1)Nc1ccccc1 | -2% |
| O=C(NNc1c(Cl)cccc1Cl)c1sc2ccccc2c1Cl | 6% |
| O=C(CSC(=S)N1CCOCC1)Nc1ncc2c(n1)CCCC2=O | -6% |
| CC/C(=N\NC(=O)c1ccc(N(C)C)cc1)c1ccccc1 | -18% |
| Cc1noc(C)c1COc1ccc(C(=O)Nc2cccnc2)cc1 | 25% |
| CCc1ccc(S(=O)(=O)NCCc2csc(C)n2)s1 | -1% |
| Cc1ccc(C)c(S(=O)(=O)N2CCN(C(=O)C3CC3C)CC2)c1 (stereo unspecified) | -4% |
| CC(=O)Nc1ccc(S(=O)(=O)N2CCSC2c2ccccc2)cc1 (stereo unspecified) | 12% |
| COc1ccc(S(=O)(=O)NCCSC(C)(C)C)c(Cl)c1Cl | 1% |
| COc1ccc(N2C(=O)[C@@H]3[C@H](C2=O)[C@H](C(C)=O)N2c4ccccc4C=C[C@@H]32)cc1 | 4% |
| CC(C)C(=O)Nc1ccc(NC(=O)c2cc3ccccc3o2)cc1 | -7% |
| COC(=O)c1sc(N/N=C/c2ccc(C(C)C)cc2)nc1C | -9% |
| O=C(O)/C=C/C(=O)NNC(=O)c1ccc(Br)cc1 | -6% |
| CCc1ccc(NC(=O)C[n+]2cc(-c3ccc(C)cc3)n3c2CCC3)cc1 | 10% |
| Cc1nn(C)cc1S(=O)(=O)Nc1cccc(Cl)c1 | -3% |
| Cc1ccc(C(=O)NCc2ccc(F)cc2)s1 | -9% |
| COC1OC2COC(c3ccccc3)OC2C(O)C1O (stereo unspecified) | 1% |
| CC1CC(C)CN(C(C)C(=O)Nc2cc(S(=O)(=O)N3CCCCC3)ccc2Cl)C1 (stereo unspecified) | 3% |
| COc1cccc(-c2noc(-c3ccoc3C)n2)c1 | -10% |
| COc1ccc(N2CCN(C3=CC(=O)N(c4cccc(Cl)c4)C3=O)CC2)cc1 | -7% |
| O=C(NCC1CCCN(Cc2cccc(F)c2)C1)c1cccc2ccccc12 (stereo unspecified) | -8% |
| O=C(O)c1cc(-c2ccccc2Cl)n(-c2cccc(Cl)c2)n1 | -27% |
| Cc1ccc(S(=O)(=O)N2CCCCC2)cc1NC(=O)CSCC(=O)O | -8% |
| CCOC(=O)N1CCN(C(=O)/C(=C/c2ccc(F)cc2)NC(=O)c2ccccc2)CC1 | 2% |
| COCCN1Cc2cccc(C(=O)Nc3cccnc3)c2C1=O | -13% |
| COC(=O)c1ccc(CN2[C@H](C(=O)OC)C[C@@]3(O)[C@H](O)[C@H](O)[C@H](O)C[C@@H]23)cc1 | -23% |
| C#CCOCCOCCOCCNc1nc(N2CCOCC2)nc(N2CCN(C(=O)CCCCCCCCCCNC(=O)[C@@H]([C@H](C)CC)n3cc(CCCCCN)nn3)CC2)n1 | 16% |
| CC(=O)N1c2ccc(S(=O)(=O)NCCC(=O)N(C)C3CCCCC3)cc2CC1C (stereo unspecified) | ? |
| CN(C)CCN=c1cc(-c2ccccc2)oc2ccc(Cl)cc12 | -14% |
| Cc1nn(-c2ccccc2)c2c1C(c1c(C)[nH]c(C#N)c1C)C(C#N)=C(N)O2 (stereo unspecified) | 3% |
| Fc1ccc(NCc2nnc(SCc3ccccc3)o2)cc1 | -12% |
| NC(=O)CCN(C(=O)c1cccc(S(=O)(=O)N2CCc3ccccc32)c1)c1ccccc1 | -5% |
| CCOC(=O)CNc1nc(Cl)nc(N2CCCCC2)n1 | 3% |
| CCC1Oc2ccc(C)cc2N(Cc2cccc(C)c2)C1=O (stereo unspecified) | -15% |
| Cc1cc(-c2ccccc2C(=O)O)on1 | 6% |
| CC(C)CNS(=O)(=O)c1ccc(S(=O)(=O)NC2CCOC(C)(C)C2)cc1 (stereo unspecified) | 9% |
| N#Cc1cc([N+](=O)[O-])ccc1NC(=O)CSc1n[nH]c(=O)n1C1CC1 | -22% |
| N#CC1(NC(=O)COC(=O)c2cc([N+](=O)[O-])ccc2N2CCCC2)CCCCC1 | 7% |
| Cc1ccc(CN(C(=O)c2ccc([N+](=O)[O-])cc2)c2ccccn2)cc1 | 1% |
| CCOC(=O)CC(NC(=O)Cn1nnc(-c2ccccc2F)n1)c1ccc(OC)cc1 (stereo unspecified) | -15% |
| CC1CCCCC1NC(=O)Cn1nnc(-c2ccc(Cl)cc2)n1 (stereo unspecified) | -5% |
| COc1cccc(C(=O)c2cn(CC(=O)Nc3ccc4c(c3)OCCO4)c3nc(C)ccc3c2=O)c1 | -8% |
| COc1cc(C)c(S(=O)(=O)NOCc2ccccc2)c(C)c1C | -17% |
| Cc1cc(C)cc(NC(=O)CSc2nc(-c3ccccc3)c3cc(F)ccc3n2)c1 | 7% |
| CCOc1ccc(/C=C/C(=O)c2cc(Br)ccc(=O)c2O)cc1 | 50µM* |
| CCc1ccc(NC(=O)CSc2nc3ccccc3nc2Cc2ccccc2OC)cc1 | 5% |
| COc1cc2c(=O)n(CCC(=O)NCC3CCCO3)c(=O)n(CC(=O)Nc3ccc(C)c(C)c3)c2cc1OC (stereo unspecified) | 13%&-12% |
| O=C(O)c1cc([N+](=O)[O-])cc([N+](=O)[O-])c1N1CCN(c2cccc(C(F)(F)F)c2)CC1 | -6% |

(next part)
| molecule | VDR inh |
| --- | --- |
| O=C(CN1CCN(c2ccc(Cl)cc2[N+](=O)[O-])CC1)N1CCOCC1 | 1% |
| COc1ccc(S(=O)(=O)N/N=C\c2ccc3c(c2)OCO3)c(OC)c1 | 11% |
| Cc1cc(C)c(C)c(S(=O)(=O)N2CCCCC2C(=O)O)c1C (stereo unspecified) | 5% |
| Cc1ccccc1C(=O)N1CCN(CCc2ccccn2)CC1 | -2% |
| Cn1c(=O)n(-c2ccc(Br)cc2F)c(=O)c2sc3ccccc3c21 | 2% |
| O=C(CCCNC(=O)c1ccc(Cl)cc1)Nc1ccc(F)c(S(=O)(=O)N2CCOCC2)c1 | 3% |
| COc1ccc2c(c1)c(=O)oc1c(C)c(OCc3cc(C(=O)O)oc3C)ccc12 | -3% |
| CCc1cc(-c2ccc3c(c2)COc2c4ccccc4nn2-3)on1 | -15% |
| COc1ccc(C(=O)Nc2ccc3nc(N4CCOCC4)sc3c2)cc1OC | -13% |
| O=C(Nc1ccccc1)c1cnc2ccccc2n1 | -17% |

Given with values ahead of the structure: 5 of the compounds above
VDR inh,smiles
11%,COc1ccc(S(=O)(=O)N/N=C\c2ccc3c(c2)OCO3)c(OC)c1
-2%,Cc1ccccc1C(=O)N1CCN(CCc2ccccn2)CC1
-3%,COc1ccc2c(c1)c(=O)oc1c(C)c(OCc3cc(C(=O)O)oc3C)ccc12
5%,Cc1cc(C)c(C)c(S(=O)(=O)N2CCCCC2C(=O)O)c1C (stereo unspecified)
3%,O=C(CCCNC(=O)c1ccc(Cl)cc1)Nc1ccc(F)c(S(=O)(=O)N2CCOCC2)c1

Remaining list, next part.
| molecule | VDR inh |
| --- | --- |
| Cc1cc(C)c[n+](CC(=O)c2ccc(NC(=O)c3ccccc3)cc2)c1 | 0% |
| COc1ccccc1N1CCN(C2CCCN(S(=O)(=O)c3ccc(C)cc3)C2)CC1 (stereo unspecified) | 14% |
| CSc1ccc(C(=O)/C=C/c2ccc(N)cc2)cc1 | -10% |
| COc1ccc(-c2cc(C(=O)NN)n(-c3ccccc3)n2)cc1 | ? |
| Nc1nc2c(ncn2[C@@H]2O[C@H](COP(=O)(O)OP(=O)(O)OP(=O)(O)O)[C@@H](O)C2O)c(=O)[nH]1 (stereo partly specified) | 6% |
| O=C(Nc1ccc(S(=O)(=O)NCc2ccco2)cc1)c1cccc(F)c1 | 19% |
| Cc1nc(C(=O)O)sc1C1(C)CC(c2cccc([N+](=O)[O-])c2)=NO1 (stereo unspecified) | 15% |
| N#CCC(=O)N1CCCCCC1 | -14% |
| C/C=C/c1ccc(OCCN2CCc3ccccc3C2)c(OC)c1 | -15% |
| C/C(=N\Nc1ccccc1C(=O)O)c1ccncc1 | -3% |
| O=C1C(=O)N(CCCc2ccccc2)c2ccccc21 | ? |
| CCn1cc(C(=O)OCC(=O)Nc2cc(C)cc(C)c2)c(=O)c2ccc(C)nc21 | -23% |
| CCn1c(Cn2nnc(-c3ccccc3)n2)nnc1SCC(=O)N1CCOCC1 | 24% |
| CCOC(=O)c1c(NC(=O)CC)sc(C(=O)N2CCCCC2)c1C | 9% |
| CC(=O)Nc1cccc2c1C(=O)N(c1cccc(OC(C)=O)c1)C2=O | -1% |
| COc1ccc(CCC(=O)Nc2ccc3c(c2)OCCO3)cc1 | -2% |
| CCOc1ccc(NC(=O)CNS(=O)(=O)c2c(C)cc(C)cc2C)cc1 | -13% |
| CCN(CC(=O)Nc1cc(Cl)ccc1C)C(=O)CSCc1c(C)noc1C | -3% |
| Cc1ccc(-n2ncc3c(=O)[nH]c(SCC(=O)N4CCN(c5ccccc5)CC4)nc32)cc1 | -14% |
| COc1ccc(OC)c(NC(=O)CSc2nc(=O)n(Cc3ccccn3)c3c2CCC3)c1 | -3% |

> COc1cc(OC)c(OC)cc1CN1CCCC(C(=O)c2ccc3c(c2)OCO3)C1 (stereo unspecified)
  VDR inh: -6%
> COc1cccc(C(CC(=O)Nc2cccc3ccccc23)NC(=O)c2ccccc2)c1 (stereo unspecified)
  VDR inh: 6%
> Fc1cccc(CCN2CCN=C2Nc2ccccc2)c1
  VDR inh: -20%
> CC1(C)Cc2c(c(-c3ccccc3)nc(N3CCCC3)c2C(N)=O)CO1
  VDR inh: -8%
> Cc1ccc(NC(=O)Nc2ccc3c(c2)N(C)C(=O)CS3)nc1
  VDR inh: 4%
> C=CCn1c(CSc2nc3ccccc3s2)nnc1SCC(=O)NCc1ccco1
  VDR inh: -8%
> Cc1ccc(OCC(=O)Nc2ccc3c(c2)OCO3)c([N+](=O)[O-])n1
  VDR inh: -2%
> COc1cccc(C(C#N)NCCCNC(C#N)c2cccc(OC)c2OC)c1OC (stereo unspecified)
  VDR inh: -6%
> CCNC(=S)N/N=C(\C)c1ccc(Cl)s1
  VDR inh: -28%
> O=C1CSC(c2ccccn2)N1c1ccc(Br)cc1 (stereo unspecified)
  VDR inh: -1%
> CN(C(=O)CC1C(=O)NCCN1Cc1ccccc1C(F)(F)F)C1CCOCC1 (stereo unspecified)
  VDR inh: ?
> CC(C)c1ccc(NC(=O)c2cc3c(s2)-c2ccccc2SC3)cc1
  VDR inh: 5%
> COc1ccccc1N1CCN(C(=O)CCSCc2ccccc2F)CC1
  VDR inh: -2%&15%
> Cc1cc(C)c(NC(=O)Cn2c(=O)n(CCC(=O)NCc3ccc4c(c3)OCO4)c(=O)c3ccccc32)c(C)c1
  VDR inh: -17%
> Cc1ccc(CNCC(O)(c2ccccc2)c2ccccc2)cc1
  VDR inh: 7%

> Clc1ccccc1C1Nc2cccc3cccc(c23)N1
  VDR inh: ?
> O=C(Nc1ccc(N2CCOCC2)cc1)c1cccc(S(=O)(=O)N2CCOCC2)c1
  VDR inh: 0%
> CN(C)C(=O)c1cn(-c2ccc(Cl)cc2)c(=O)c2ccccc12
  VDR inh: 1%
> CN1CCN(C(=O)c2cc3ccccc3oc2=O)CC1
  VDR inh: 0%
> CCOC(=O)C(=CNc1ccc(C)cc1C)C(=O)OCC
  VDR inh: 7%
> CN(C(=O)COc1ccccc1)c1nnc(-c2ccncc2)s1
  VDR inh: -8%
> CC(=O)c1cccc(NC(=O)CCCNC(=O)c2ccc(Cl)cc2)c1
  VDR inh: 2%
> CCCCOc1ccc(C2=NC(c3ccncc3)=Nc3ccc(Br)cc3N2)cc1
  VDR inh: -10%
> O=C(COC(=O)COc1ccc(Cl)cc1)NC1CC1
  VDR inh: 1%
> O=C(CC1SC(N2CCCC2)=NC1=O)Nc1ccc(C(=O)N2CCN(c3cccc(Cl)c3)CC2)cc1 (stereo unspecified)
  VDR inh: -4%
> O=c1[nH]c(CN2CCN(CCO)CC2)nc2ccccc12
  VDR inh: -6%
> O=C(c1ccccc1)n1ccc(-c2cccs2)n1
  VDR inh: 5%
> CCNC(=O)C1CCCN1S(=O)(=O)c1ccc(OC)cc1 (stereo unspecified)
  VDR inh: -3%
> Cc1ccc(-c2cc(C(F)(F)F)n3nc(C(=O)NCC45CC6CC(CC(C6)C4)C5)cc3n2)cc1
  VDR inh: 14%
> c1ccc(-c2ccc3c(c2)c2c4n3CCN=C4CCC2)cc1
  VDR inh: 14%

> C[C@@H]1NS(=O)(=O)[C@H]2C[C@@H]3C=C[C@]2(O3)[C@H]1OC(=O)Nc1ccc(C(F)(F)F)cc1[N+](=O)[O-]
  VDR inh: -12%
> CC[C@H](C)C(=O)N[C@H]1CCCN1C(=O)/C=C/c1ccccc1
  VDR inh: -4%
> O=C1CCC(=O)N1CC(=O)N1CCCc2ccccc21
  VDR inh: -1%
> CC(=O)Cc1nsc(NC(=O)c2cc(-c3cccc(C(F)(F)F)c3)oc2C)n1
  VDR inh: 12%
> Cc1ccc(NC(=O)c2ccc(-c3nn(C)c(=O)c4ccccc34)cc2)c(C)c1
  VDR inh: -16%
> CC(C)(C)OC(=O)NCC12C=CC(O1)C1C(=O)N(Cc3ccccc3)C(=O)C12 (stereo unspecified)
  VDR inh: 4%

Part of the list above, with the structure last.
VDR inh | Structure
-3% | CCN(CC(=O)Nc1cc(Cl)ccc1C)C(=O)CSCc1c(C)noc1C
-14% | Cc1ccc(-n2ncc3c(=O)[nH]c(SCC(=O)N4CCN(c5ccccc5)CC4)nc32)cc1
-3% | COc1ccc(OC)c(NC(=O)CSc2nc(=O)n(Cc3ccccn3)c3c2CCC3)c1
-6% | COc1cc(OC)c(OC)cc1CN1CCCC(C(=O)c2ccc3c(c2)OCO3)C1 (stereo unspecified)
6% | COc1cccc(C(CC(=O)Nc2cccc3ccccc23)NC(=O)c2ccccc2)c1 (stereo unspecified)
-20% | Fc1cccc(CCN2CCN=C2Nc2ccccc2)c1
